Screening data as filed in PubChem.
GLA inh pH 4.5: blocks human alpha-galactosidase A at pH 4.5; P06280; purified enzyme, 4-MU-alpha-Gal fluorescence, pH 4.5; activity change, negative = inhibition, % at 105 µM; 230,000 tested, under 10 active; AID 1467; inconclusive = small, poorly fitted or top-dose-only inhibition, or a rising curve; inactive = flat fitted curve, though single readings scatter; no compound was filed as active;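 also: 0% = full activity with enzyme and -100% = basal without enzyme; dose as in the result columns while the protocol names 77 µM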
Rango-impB inh: Rango-importin beta binding inhibition; Q14974; Potency, µM (series often up to 92.2 µM), inactives show top-dose inhibition of complex formation; Rango CFP/YFP FRET sensor + importin beta, 45 min; 0.031% of 340,000 active; active = rising FRET ratio curve, often small or poorly fitted; inconclusive = mostly compound fluorescence or quenching in the first reads; inactive = flat curves in all reads;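 also: potency is read from the fitted curve at half-maximal effect; 0% = DMSO wells and 100% = buffer wells lacking importin beta; nearly all actives have a fitted effect of over 15% in size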
Target sequence (Q14974 whole entry, looked up): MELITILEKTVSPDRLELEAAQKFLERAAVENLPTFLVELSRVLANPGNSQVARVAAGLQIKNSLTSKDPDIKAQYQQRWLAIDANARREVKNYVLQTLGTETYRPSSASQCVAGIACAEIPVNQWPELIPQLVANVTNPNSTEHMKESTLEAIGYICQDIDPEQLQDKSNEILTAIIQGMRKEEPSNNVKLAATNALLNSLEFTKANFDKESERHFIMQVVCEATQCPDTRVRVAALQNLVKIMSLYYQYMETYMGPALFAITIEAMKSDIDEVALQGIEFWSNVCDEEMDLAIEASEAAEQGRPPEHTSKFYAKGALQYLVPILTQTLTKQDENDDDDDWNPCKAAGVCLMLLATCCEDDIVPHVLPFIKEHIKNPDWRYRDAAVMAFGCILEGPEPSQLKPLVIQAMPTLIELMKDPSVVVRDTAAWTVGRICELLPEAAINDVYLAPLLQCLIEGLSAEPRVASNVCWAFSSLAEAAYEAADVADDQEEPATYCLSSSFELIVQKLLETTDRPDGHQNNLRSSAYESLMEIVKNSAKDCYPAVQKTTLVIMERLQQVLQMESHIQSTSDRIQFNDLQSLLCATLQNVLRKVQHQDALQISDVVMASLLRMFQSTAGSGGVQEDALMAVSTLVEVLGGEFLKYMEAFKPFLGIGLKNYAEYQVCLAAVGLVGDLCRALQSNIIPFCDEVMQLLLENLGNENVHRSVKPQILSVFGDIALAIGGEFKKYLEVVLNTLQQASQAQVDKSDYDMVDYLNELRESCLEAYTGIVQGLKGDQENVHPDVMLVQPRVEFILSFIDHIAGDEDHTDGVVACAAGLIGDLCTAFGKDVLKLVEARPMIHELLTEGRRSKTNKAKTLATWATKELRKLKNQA
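FRET biosensor Rango (snurportin 1 IBB between N-terminal EYFP and C-terminal Cerulean), 50 nM in PBS/1 mM DTT/0.02% Tween-20/0.1% BSA, preincubated 5 min RT with compound; 0.125 microM importin beta added, 45 min RT, CFP/YFP FRET ratio read.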
miR-21 reporter: miR-21 reporter, rising signal | HeLa miR-21 FLuc reporter, luciferase, 48 h | AID 2288 | 340,000 tested, under 10 active | Potency, µM (doses to about 38.3 µM), for the others: at the top dose reporter change, positive = more light; active = well fitted rising curve with a large enough effect; inconclusive = small, poorly fitted or top-dose-only effect; inactive = no such curve, though single readings can be large or run the other way;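 also: % of control where 0% means no effect; miR-21 action dims this reporter so a rising signal means less miR-21 action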
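HeLa cells stably expressing CMV-driven firefly luciferase with a downstream miR-21 binding sequence, endogenously expressing miR-21, were treated with titrations (up to about 40uM final) for 48 hours at 37 degree Celsius. Luciferase luminescence was read after lysis.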
Rango dissoc inh: inhibitors of RanGTP-induced Rango-importin beta complex dissociation; O95149+P62826; Biochemical FRET Rango-importin beta, RanGTP-induced dissociation; Potency, µM (top dose mostly 46.1 µM), for the others: at the highest dose activity change, negative = inhibition; 0.071% of 340,000 active; active means falling FRET ratio curve, often poorly fitted, with flat reads before Ran was added; inconclusive means other falling curves, or compound fluorescence or quenching; inactive means flat or rising ratio curve;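 also: potency is read from the fitted curve at half-maximal effect; % of control where 0% means no effect; nearly all actives have a fitted effect of over 45% in size; -100% = wells without RanGTP and RCC1; the record marks most hits as doubtful in a second field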
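Rango/importin beta premix (0.1/0.25 uM final), PBS + 1 mM DTT + 0.02% Tween-20 + 0.1% BSA; cpd 5 min RT; FRET pre-read; + RanGTP-RCC1 (0.6 uM Ran, 2 mM GTP, 0.2 uM RCC1); 45 min RT; FRET post-read, ex 430, em 486/530 nm.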
An asterisk follows results filed as active; ? = inconclusive; . = not tested or not shown.

Start of the listing, in advance (2 entries):
GLA inh pH 4.5	Rango-impB inh	miR-21 reporter	structure	Rango dissoc inh
0	0.3%	-2%	CCOC(=O)c1ccccc1NC(=O)COC(=O)c1ccc(C)c(S(=O)(=O)N2CCOCC2)c1	11%
.	-2.0%	9%	O=C(NCC(c1ccco1)N1CCCCC1)c1cccc(S(=O)(=O)Nc2ccccc2Cl)c1 (configuration not stated)	-11%

Main list, from the start:
GLA inh pH 4.5	Rango-impB inh	miR-21 reporter	structure	Rango dissoc inh
0	0.3%	-2%	CCOC(=O)c1ccccc1NC(=O)COC(=O)c1ccc(C)c(S(=O)(=O)N2CCOCC2)c1	11%
.	-2.0%	9%	O=C(NCC(c1ccco1)N1CCCCC1)c1cccc(S(=O)(=O)Nc2ccccc2Cl)c1 (configuration not stated)	-11%
.	-1.2%	2%	O=C(CCN1C(=O)C2C3CCC(C3)C2C1=O)OCC(=O)c1ccc(Cl)cc1 (configuration not stated)	1%
-1	?	-16%	CC(C)c1nn2c(N)c(/C=C3\C=Nc4ccccc43)c(=O)nc2s1	?
.	0.0%	.	COc1cccc(C(=O)NCCS(=O)(=O)NCc2cccnc2)c1	8%
3	-2.4%	-17%	Cc1cccc(/C(N)=N/OC(=O)c2ccc(Br)o2)c1	17%
.	-3.4%	.	CC(=O)Nc1ccc(S(=O)(=O)Nc2cccc(-n3c(C)nc4ccccc4c3=O)c2)cc1	-1%
.	2.2%	-1%	Cc1cc(OCC(=O)NNC(=S)NC(=O)c2ccc(Br)o2)ccc1Cl	-5%
.	4.7%	4%	COc1ccccc1N1CCN(C2CCCN(C(=O)CCC(=O)N(C)C)C2)CC1 (configuration not stated)	-2%
-4	?	2%	CC(=O)N(C(C)=O)n1c(/C=C/c2ccc([N+](=O)[O-])cc2)nc2ccccc2c1=O	?
.	1.6%	3%	CCC(=O)N1CCc2cc(Br)cc(S(=O)(=O)NCCCN(CC)Cc3ccccc3)c21	?
.	-1.0%	.	CC1(c2ccc3c(c2)OCCO3)NC(=O)N(CC(=O)c2ccc[nH]2)C1=O (configuration not stated)	-5%
1	-2.8%	-11%	COC(=O)CCCCCCCCCC[N+]1(C)CCCCC1	-4%
3	4.4%	-1%	Cc1cnc([N+](=O)[O-])n1CCOC(=O)NC(=O)c1ccccc1Cl	0%
.	-1.3%	4%	CCOC(=O)[C@@H]1[C@H]2COc3ccccc3[C@H]2N2C(=O)N(c3ccc(Cl)cc3)C(=O)[C@]12C	-6%
-9	-2.5%	2%	CN=C1S/C(=C\c2cc(C)n(-c3ccccc3F)c2C)C(=O)N1C	?
3	2.7%	0%	O=C(CNC(=O)C(c1ccccc1)c1ccccc1)OCc1ccccc1	0%
.	-1.1%	12%	COc1ccc(C(=O)CCC(=O)N2CCN(c3ccc(C)cc3)C(C)C2)cc1 (configuration not stated)	-5%
.	0.2%	.	O=C1N[C@@H](Cc2ccccc2)C(=O)N2[C@H]1C[C@]1(Br)c3ccccc3N(S(=O)(=O)c3ccc(F)cc3)[C@H]21	8%
.	-1.4%	1%	CCOc1ncccc1C(=O)NCCc1c[nH]c2ccccc12	16%
.	-1.8%	.	COc1cc(/C=C(\CC(=O)O)c2nc3ccccc3s2)ccc1OCC(=O)Nc1ccccc1F	-3%
.	0.4%	0%	CC(=O)N1CCc2cc(S(=O)(=O)NC(C(=O)NC(C)c3ccccc3)C(C)C)ccc21 (configuration not stated)	-10%
.	-0.4%	2%	CCOC(=O)N1C(=O)[C@](CC)(c2ccccc2)N1C(=O)OCC	-1%
.	-4.7%	25%	CN(C)S(=O)(=O)N1CCC(Oc2cccc(C(=O)NCCC3=CCCCC3)c2)CC1	-8%

Part of the list above in order of length of the SMILES, high to low:
GLA inh pH 4.5	Rango-impB inh	miR-21 reporter	structure	Rango dissoc inh
.	-1.3%	4%	CCOC(=O)[C@@H]1[C@H]2COc3ccccc3[C@H]2N2C(=O)N(c3ccc(Cl)cc3)C(=O)[C@]12C	-6%
.	-1.8%	.	COc1cc(/C=C(\CC(=O)O)c2nc3ccccc3s2)ccc1OCC(=O)Nc1ccccc1F	-3%
.	-1.1%	12%	COc1ccc(C(=O)CCC(=O)N2CCN(c3ccc(C)cc3)C(C)C2)cc1 (configuration not stated)	-5%
.	4.7%	4%	COc1ccccc1N1CCN(C2CCCN(C(=O)CCC(=O)N(C)C)C2)CC1 (configuration not stated)	-2%
-1	?	-16%	CC(C)c1nn2c(N)c(/C=C3\C=Nc4ccccc43)c(=O)nc2s1	?

Further entries.
GLA inh pH 4.5	Rango-impB inh	miR-21 reporter	structure	Rango dissoc inh
9	-1.9%	-13%	O=C(CCC(=O)c1cccs1)NC1CCCCCC1	-12%
5	0.2%	-1%	O=C(NCCc1nc2ccccc2[nH]1)c1ccc([N+](=O)[O-])cc1	12%
-9	-1.5%	-20%	Clc1cccc(CSc2ccc(-c3cccnc3)nn2)c1	-5%
-2	-2.1%	0%	CN(C)S(=O)(=O)c1cccc(NC(=O)CSc2nncn2C)c1	2%
-4	1.4%	-9%	CC(C)CCNC(=O)c1ccc2c(c1)N(Cc1ccccc1)C(=O)CS2=O (configuration not stated)	-14%
.	5.1%	.	Cc1cccc(NC(=O)C2CCN(S(=O)(=O)c3c(C)c(C)cc(C)c3C)CC2)n1	0%
7	-1.0%	0%	COC(=O)c1ccccc1NC(=O)N1CSC[C@H]1C(=O)OC	3%
-15	-3.4%	-3%	CC(=O)Nc1cc(C(C)C)c(O)c(C(C)C)c1	-12%
3	2.6%	-6%	Cc1nc2sc(C(c3cccs3)N3CCC4(CC3)OCCO4)c(O)n2n1 (configuration not stated)	1%
.	-3.4%	-1%	COc1ccccc1CCC(=O)NCCCn1ccc2ccccc21	14%
7	-3.1%	-3%	OCC1(Cc2ccccc2)CCN(Cc2cnc(-c3cccc4ccccc34)nc2)CC1	-10%
1	-0.7%	-2%	Cc1cc(-c2nn(-c3ccccc3F)cc2CN(C)CC(O)CO)c(C)s1 (configuration not stated)	2%
.	-2.7%	2%	Cc1cc(F)ccc1S(=O)(=O)N1CCCOC1CNC(=O)C(=O)NCCc1ccccc1 (configuration not stated)	5%
3	-2.2%	-2%	CCOC(=O)c1[nH]ncc1CN1CCCC(C(=O)c2ccc(C(C)(C)C)cc2)C1 (configuration not stated)	-12%
0	0.2%	-26%	CC1(C)CC(=O)c2cc(NC(=O)c3ccccc3)c(=O)oc2C1	-5%
-7	-5.5%	-11%	C/C(=N\NC(=O)COc1ccc(C(C)(C)C)cc1)c1ccc2c(c1)OCCO2	-16%
-15	?	1%	C/C(=N/NC(=O)CNC(=O)c1cccc(F)c1)c1ccc2c(c1)CCCC2	7%
-14	6.4%	-4%	CCOc1ccccc1NC(=O)CCS(=O)(=O)c1cccc2nonc12	-6%
-11	-0.5%	1%	CC(=O)c1cccc(NC(=O)C(=O)c2cn(CC(=O)N3CCCCC3)c3ccccc23)c1	-12%
-4	4.4%	-5%	O=c1cc(N2CCC3(CC2)OCCO3)[nH]c(=O)n1-c1ccc(Cl)cc1	10%
.	-0.9%	.	CC(OC(=O)Cn1cc(C(F)(F)F)ccc1=O)C(=O)N(C)c1ccccc1 (configuration not stated)	-1%
0	?	-4%	COc1ccccc1NS(=O)(=O)c1ccc(NC(=O)c2nc3nc(C)cc(C(F)F)n3n2)cc1	0%
4	-3.9%	16%	Cc1ccc(NC(=O)CSc2nnc(-c3n[nH]c4ccccc34)n2-c2ccccc2)c(C)c1	-4%
0	0.0%	-8%	O=[N+]([O-])c1ccccc1OCCCCN1CCCCC1	1%
-1	6.1%	1%	COc1ccc(Nc2nnc(-c3ccc(O)cc3)c3ccccc23)cc1C(N)=O	1%
2	-0.2%	-6%	Cc1cc(NC(=O)COc2ccc3oc4ccccc4c3c2)no1	11%
.	0.0%	-3%	O=C(NC(Cc1ccc(O)cc1)C(=O)O)/C(=C/c1ccccc1)NC(=O)c1ccccc1 (configuration not stated)	1%
-2	1.9%	-24%	O=C(Nc1ncnc2c1ncn2C1OC(COC(=O)c2ccccc2)C(F)C1O)c1ccccc1 (configuration not stated)	21%
-1	0.2%	-39%	O=C(Nc1nncs1)c1cc2c(s1)CCC2	-3%
.	3.2%	.	COC(=O)/C=C1\SC(=NC(=O)c2ccc(-c3ccccc3)cc2)NC1=O	-5%
.	-4.2%	-1%	CCCn1c2ccccc2c2cnn(CC(=O)NCCCOC)c(=O)c21	10%
.	-0.8%	.	COc1cc(OC)c(C(=O)NNC(=O)c2ccc(NS(=O)(=O)c3cccs3)cc2)cc1OC	1%

Retrieved by structure from the list above (2):
GLA inh pH 4.5	Rango-impB inh	miR-21 reporter	structure	Rango dissoc inh
.	-4.2%	-1%	CCCn1c2ccccc2c2cnn(CC(=O)NCCCOC)c(=O)c21	10%
-1	0.2%	-39%	O=C(Nc1nncs1)c1cc2c(s1)CCC2	-3%

Next results:
GLA inh pH 4.5	Rango-impB inh	miR-21 reporter	structure	Rango dissoc inh
3	-0.3%	1%	CCc1cc(C(=O)c2ccc(OC)cc2)c(NC(=O)CN2CCCCC2)s1	-1%
5	1.4%	-43%	O=C1/C(=C/c2ccccc2)CSc2sccc21	-5%
6	-4.9%	3%	COc1ccc(C(=O)NCc2nnc(SCC(=O)NO)n2Cc2ccccc2)cc1	-11%
.	-1.0%	-2%	Cc1ccn2c(C(=O)NNC(=O)Nc3ccc(Cl)cc3)c(C)nc2c1	-7%
-6	5.8%	6%	COc1ccccc1-n1c(SCC(=O)Nc2ccc3c(c2)OCO3)nc2c(c1=O)SCC2	-12%
4	1.0%	5%	O=C(Cc1c(F)cccc1Cl)Nc1ccc(S(=O)(=O)NCC2CCCO2)cc1 (configuration not stated)	0%
-14	0.8%	-7%	CCOc1ccc(N(CC(=O)N/N=C/c2cc([N+](=O)[O-])ccc2Cl)S(C)(=O)=O)cc1	-2%
7	-0.1%	-7%	O=[N+]([O-])/C(=C\Nc1ccccc1)S(=O)(=O)c1ccccc1	0%
-4	0.4%	-1%	CCOC(=O)C1C(=O)OC(C)(C)C1C(C)C(=O)c1ccc(OC)cc1 (configuration not stated)	11%
.	2.7%	-9%	COc1ccc(C(=O)Nc2ccccc2N2CCCC2)cc1	1%
-13	1.4%	8%	Oc1ccccc1CN(Cc1ccco1)CC(O)COCc1ccc(Cl)cc1 (configuration not stated)	-14%
.	4.2%	-38%	COc1ccc(CNc2nc(Cl)c(C#N)s2)cc1	24%
.	2.0%	.	CC(CNC(=O)c1ccccc1[N+](=O)[O-])NC(=O)c1ccccc1[N+](=O)[O-] (configuration not stated)	-10%
5	5.9%	-6%	COc1cccc(Nc2ccc(C(=O)O)cc2[N+](=O)[O-])c1	7%
.	5.8%	.	CCOC(=O)N1CCN(S(=O)(=O)CCNC(=O)c2ccccc2)CC1	31%
-4	0.0%	0%	COc1ccc(OC)c(NC(=O)c2cccc(C)c2[N+](=O)[O-])c1	-7%
3	-2.5%	-7%	CC(/C=N/NC(=O)c1cc(-c2ccc3ccccc3c2)n[nH]1)=C\c1ccco1	1%
-12	-0.1%	16%	CCN(CC)S(=O)(=O)c1cccc(-c2nnc(SCCCC(=O)c3ccccc3)o2)c1	-10%
.	0.0%	1%	COc1cccc(/C=C/c2nc(S(=O)(=O)c3ccccc3)c(N(C)C)o2)c1	-9%
-5	-0.7%	2%	Nc1nc2c(c(=O)[nH]1)C(c1cccc3ccccc13)C1=C(N2)c2ccccc2C1=O (configuration not stated)	-13%
1	-0.9%	2%	CCOC(=O)C1(CC2CC2)CCN(C(=O)c2cccnc2C)CC1	-2%
-2	?	0%	O=C(CSc1nc2nc3c(cc2c(=O)n1-c1ccccc1)CCCC3)Nc1cccc2ccccc12	-6%
.	-3.1%	.	O=C(CN1CCCc2ccccc21)Nc1cc(S(=O)(=O)N2CCCC2)ccc1Cl	2%
-9	0.2%	-24%	c1ccc2c(c1)oc1c(N3CCN(Cc4ccc5c(c4)OCO5)CC3)ncnc12	21%
2	1.2%	-56%	CSc1ccccc1C(=O)Nc1ccc(C)c(C)c1	11%
.	0.9%	-54%	O=C(NC(=S)NC1CCCCC1)c1ccc(F)cc1	-5%

Only part of the results is shown; count on the stated rates, not on these rows.
